# GIRK2 act: activators of human GIRK2 potassium channels; G protein-activated inward rectifier potassium channel 2 (Homo sapiens), P48051; HEK293-GIRK2 thallium flux, Thallos fluorescence; calls only for hits at 25 µM; 63,000 tested, 0.05% active; AID 1259325, 2017;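 active = among the strongest 0.2% of first-round signals and kept after retests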;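 note: first round at about 10 µM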
# Target sequence (P48051 whole entry, looked up): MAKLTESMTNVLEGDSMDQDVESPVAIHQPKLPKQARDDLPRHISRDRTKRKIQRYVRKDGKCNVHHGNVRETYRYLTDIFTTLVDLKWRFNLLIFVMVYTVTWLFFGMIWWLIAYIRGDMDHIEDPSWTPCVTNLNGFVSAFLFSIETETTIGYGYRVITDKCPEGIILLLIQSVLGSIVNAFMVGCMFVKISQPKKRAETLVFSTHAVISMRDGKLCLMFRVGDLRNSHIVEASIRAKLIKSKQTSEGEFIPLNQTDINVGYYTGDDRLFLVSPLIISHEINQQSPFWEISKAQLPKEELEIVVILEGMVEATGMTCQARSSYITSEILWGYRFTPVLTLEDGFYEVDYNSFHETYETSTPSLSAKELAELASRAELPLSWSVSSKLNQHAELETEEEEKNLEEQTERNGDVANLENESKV
# Calls only; i = inactive.
# A first look, five compounds:
GIRK2 act | smiles
i | CCN(CC)C(=O)c1cnc2ccc(F)cc2c1S(=O)(=O)c1ccc(OC)c(OC)c1
i | O=C(Cn1nc2c3sc(N4CCCC4)nc3ncn2c1=O)Nc1ccccc1Br
i | Cc1nc(-c2cccs2)sc1CNC(=O)/C=C/c1ccco1
i | COc1ccc([N+](=O)[O-])cc1NC(=O)CCCSc1ccc(Cl)cc1
i | COc1ccc(-c2nnc(C3CCCN(S(C)(=O)=O)C3)s2)cc1 (centres undefined)

# The listing, repeating the preview:
GIRK2 act | smiles
i | CCN(CC)C(=O)c1cnc2ccc(F)cc2c1S(=O)(=O)c1ccc(OC)c(OC)c1
i | O=C(Cn1nc2c3sc(N4CCCC4)nc3ncn2c1=O)Nc1ccccc1Br
i | Cc1nc(-c2cccs2)sc1CNC(=O)/C=C/c1ccco1
i | COc1ccc([N+](=O)[O-])cc1NC(=O)CCCSc1ccc(Cl)cc1
i | COc1ccc(-c2nnc(C3CCCN(S(C)(=O)=O)C3)s2)cc1 (centres undefined)
i | Cc1cc(NC(=O)c2ccc3ccccc3c2)n(-c2nc3c(cnn3-c3cccc(Cl)c3)c(=O)[nH]2)n1
i | Cc1ccc(S(=O)(=O)N2CCCc3cc(NC(=O)c4ccccc4)ccc32)cc1
i | CSc1cccc(-n2ccc(=O)c(-c3nc(-c4ccc(F)c(Br)c4)no3)n2)c1
i | O=C(CN1CCN(S(=O)(=O)C2CC2)CC1)c1ccco1
i | Cc1ccc2c(c1)N(C(=O)Cn1cccc(S(=O)(=O)N3CCC(C)CC3)c1=O)CCO2
i | O=S(=O)(c1ccccc1C(F)(F)F)N1CCCC(c2nnc(-c3ccccc3F)s2)C1 (centres undefined)
i | COc1ccc(C(=O)CN2C(=O)c3ccccc3OC(C)C2=O)cc1[N+](=O)[O-] (centres undefined)
i | O=C(NCC1CCN(c2cnccn2)CC1)c1ccsc1
i | COC(=O)C1=C(C)N(C)C(=O)NC1c1ccc(O)c(OC)c1 (centres undefined)
i | Cc1ccc(C)c(Cn2nc(C3CCN(S(C)(=O)=O)CC3)n(C)c2=O)c1
i | O=C(Cn1cc(S(=O)(=O)c2ccc(Cl)cc2)c(=O)c2ccccc21)Nc1ccccc1
i | CCC1CCCCN1C(=O)c1cc2c(=O)n3cccc(C)c3nc2n1CCCOC (centres undefined)
i | COc1ccc(-c2cn3c(C(=O)Nc4cccc(OC)c4)csc3n2)cc1
i | O=C(CCCSc1ccc(NC(=O)c2cccs2)nn1)Nc1cnc2ccccc2c1
i | Cc1noc(-c2ccnc(-n3ncc(C(=O)NC4CCCCCC4)c3C)c2)n1

# Molecules listed so far that contain a furan ring, fused or not:
GIRK2 act | smiles
i | Cc1nc(-c2cccs2)sc1CNC(=O)/C=C/c1ccco1
i | O=C(CN1CCN(S(=O)(=O)C2CC2)CC1)c1ccco1

# Continued:
GIRK2 act | smiles
i | COc1cccc(CSc2nc3c(c(=O)[nH]2)CN(Cc2ccccc2OC)CC3)c1
i | CCCCc1cnc2c(c1SCC(=O)N1CCN(C(=O)OCC)CC1)c(=O)n(C)c(=O)n2C
i | CCN1CCc2c(sc(NC(=O)C3=COCCO3)c2-c2nc3ccccc3s2)C1
i | COc1ccc(NC(=O)c2cn(-c3cc(N4CCOCC4)ncn3)cn2)cc1
i | O=S(=O)(CCOc1ccccc1)NCc1ccc2c(c1)OCO2
i | COc1ccc(OC)c(S(=O)(=O)Nc2ccc3c(c2)N(S(=O)(=O)c2ccccc2)CCC3)c1
i | CCOC(=O)Cc1cn(C(=O)c2ccc(Cl)cc2)c2ccc(S(C)(=O)=O)cc12
i | COc1cccc(CCNC(=O)CC2CCCCN2S(=O)(=O)c2ccc(Cl)cc2)c1 (centres undefined)
i | CSc1cccc(NC(=O)CN2CCN(Cc3cnnn3-c3ccccc3C)CC2)c1
i | COc1cc(C(=S)N2CCN(C(=S)c3ccc(N(C)C)cc3)CC2)cc(OC)c1OC
i | COc1ccc(-c2cc3c(=O)[nH]nc(SCc4cc(=O)n5ccccc5n4)n3n2)cc1OC
i | COc1ccc(CNC(=O)NCc2sc(-c3ccccc3)nc2C)cc1
i | Cc1cccc(-n2nnc(C(=O)Nc3ccccc3)c2C)c1
i | CCCOC(=O)c1ccc(Oc2coc3c4c(ccc3c2=O)OCN(C2CCS(=O)(=O)C2)C4)cc1 (centres undefined)
i | COc1ccc(NC(=O)/C=C/c2ccco2)cc1N1CCCC1=O
i | O=C(C1CC1)N1CCC2(CC1)OCCS2
i | O=C(NCc1ccc(F)cc1)c1ccc2c(=O)n(-c3cccc(C(F)(F)F)c3)c(=S)[nH]c2c1
i | CCCn1cc(S(=O)(=O)c2cc(C)ccc2C)c(=O)c2cc(F)c(N3CCOCC3)cc21
i | COc1ccc(S(=O)(=O)NCC(c2ccsc2)N2CCN(C)CC2)cc1Cl (centres undefined)
i | O=C(NCc1ccco1)c1cc(-c2cccs2)[nH]n1

# Other records:
GIRK2 act | smiles
i | Cc1nn(-c2ccc(C(=O)NCCc3ccc(Cl)cc3)cn2)c(C)c1C
i | O=C(CSc1nnc(-c2ccc(C(=O)O)cc2)o1)NC1CCCCC1
i | Cc1ccc(-c2ccc3nnc(CCC(=O)N4CCN(c5ccccc5Cl)CC4)n3n2)cc1C
i | COc1cccc(-n2ncc3c(N/N=C\c4cccc(F)c4)ncnc32)c1
i | COc1cccc(-c2c(NC(=O)c3cccs3)oc3ccccc3c2=O)c1
i | O=S(=O)(c1c(F)cccc1F)N1CCC(CSCc2ccco2)CC1
i | COc1ccc(C2C(=C(O)c3ccc(F)cc3)C(=O)C(=O)N2c2cc(C)on2)cc1OC (centres undefined)
i | COc1ccc(N2CC(c3nc4ccccc4n3CCOc3cccc(OC)c3)CC2=O)cc1 (centres undefined)
i | O=C(NCCN1CCN(c2ccccc2)CC1)c1ccc(Br)o1
i | O=C(Cn1nc2c(N3CCOCC3)nccn2c1=O)N1CCN(c2ccccc2F)CC1
i | COc1ccccc1N1CCN(C(C)(C)CN)CC1
i | O=C(COc1ccc(Br)cc1[N+](=O)[O-])Nc1ccc(Cl)c([N+](=O)[O-])c1
i | COc1ccc(-c2csc(-n3nc(C)cc3NC(=O)c3cc(Cl)ccc3OC)n2)cc1OC
i | O=C(Nc1cnc(N2CCN(c3ccccn3)CC2)nc1)Nc1cccc(C(F)(F)F)c1
i | CCCCCCCCCCCCCCCC(=O)OC
i | COc1ccc(S(=O)(=O)N(CCO)c2ccccc2CN(C)C/C=C/c2ccc(Cl)cc2)cc1
i | COCCNC(=O)N1CC(c2nc(-c3ncccn3)no2)C1
i | O=C(C1CCN(c2cc(N3CCCCC3)ncn2)CC1)N1CCN(c2ccccc2)CC1
i | O=C(Cn1c(=O)oc2ccccc21)N1CCC(Cn2cccn2)CC1
i | O=C(/C=C/c1ccc2c(c1)OCO2)Nc1ccc(Cl)c(N2CCCS2(=O)=O)c1

# More compounds follow.
GIRK2 act | smiles
i | COCCCn1c(C(=O)NC(c2ccccc2)c2ccccc2)cc2c(=O)n3ccccc3nc21
i | O=S(=O)(NCC1(c2ccccc2)CCOCC1)c1cccc(C(F)(F)F)c1
i | N#C/C(=C/Nc1ccc(C(N)=O)cc1)c1nc(-c2cc3cc(Cl)ccc3oc2=O)cs1
i | CCCCOCC(O)C[N+]1(Cc2ccccc2)CCCC1 (centres undefined)
i | O=S(=O)(NCCC1=CCCCC1)c1ccc(C2CCCCC2)cc1
i | O=C(c1cc(-c2ccc(F)cc2)c[nH]1)N1CCN(c2ccccc2Cl)CC1
i | CONC(=O)c1nnn(-c2nccs2)c1C
i | COc1ccc(S(=O)(=O)N(Cc2ccoc2)Cc2cccs2)cc1OC
i | CCN1CCCc2cc(CCNC(=O)C(=O)NCCc3ccccc3)ccc21
i | Cc1onc(-c2ccccc2Cl)c1C(=O)NCCn1nc(C2CC2)n(-c2ccccc2)c1=O
i | Cc1oc2cc(OCCN3CCN(CCO)CC3)ccc2c(=O)c1-c1ccc(Cl)cc1
i | Cc1cc(C)n(-c2nccnc2SCC(=O)Nc2cccc(C(C)C)c2)n1
i | Cc1cc(C)nc(Nc2nc(C(=O)Nc3cccc4nc(C)ccc34)cs2)n1
i | Cc1ccc2[nH]c3c(=O)n(CCC(=O)NCc4cccc(C(F)(F)F)c4)cnc3c2c1
i | COCCn1c(-c2cccc(Br)c2)nc2c(c(=O)c3ccccc3n2C)c1=O
i | Cc1cc(OCC(=O)NCc2ccccc2)nc(N2CCN(c3ccccc3)CC2)n1
i | COc1ccccc1CNC(=O)c1nnn(-c2ccc(Cl)cc2)c1-c1cccnc1
i | O=C(c1cc(Cl)ccc1Cl)N1CCC(CSC2=NCCS2)CC1
i | C=CCn1c(=O)c2c(nc3n2CCCCN3c2ccc(OCC)cc2)n(C)c1=O
i | COc1ccc2c(-c3ccnc(Nc4cccc(OC(F)(F)F)c4)n3)cnn2n1

# (more compounds)
GIRK2 act | smiles
i | COc1ccc(C(=O)N2CCN(Cc3c(C)noc3C)CC2)c(OC)c1
i | Cc1cc(=O)n2c(-c3cccc(NC(=O)Cc4cccs4)c3)csc2n1
i | CSc1ccc2nc(NC(=O)CCCS(=O)(=O)Cc3ccccc3)sc2c1
i | Cc1cc(NC(=O)Cn2c3ccccc3c3nc4ccccc4nc32)no1
i | O=C(/C=C/c1ccccc1Cl)N1CCCC(c2nnc(-c3ccccc3F)s2)C1 (centres undefined)
i | N#Cc1ccsc1NC(=O)CSc1ncn[nH]1
i | COc1ccc(-c2csc(/C(C#N)=C/Nc3ccc(OC)c(OC)c3)n2)cc1
i | O=C(Nc1cnc(N2CCCC2)nc1)Nc1ccc2c(c1)OCCO2
i | O=C(CCSc1ccccc1)Nc1ccc(-n2nnc(C(=O)NCC(F)(F)F)n2)cc1
i | CCOc1ccccc1NC(=O)NCC1(c2ccc(F)cc2)CC1
i | CCc1nnc(C2CCN(C(=O)NCc3ccc(F)cc3)CC2)s1
i | O=C(CCSc1ccccc1)Nc1cc(N2CCN(Cc3ccccc3)CC2)ncn1
i | Cc1cccc(OCCSc2nc3ccccc3n2CC(=O)N2CCOCC2)c1C
i | O=C(CSc1nnc(N2CCN(C(=O)Cc3c[nH]c4ccccc34)CC2)s1)NCc1ccco1
i | O=C(CSc1ncc(-c2cccc([N+](=O)[O-])c2)n1-c1ccccc1)Nc1nccs1
i | COc1cc([N+](=O)[O-])cc2cc(C(=O)N3CCN(c4cc(Cl)ccc4Cl)CC3)c(=O)oc12
i | CCOc1ccc(S(=O)(=O)Nc2ccc3c(c2)N(S(=O)(=O)CC)CCC3)cc1
i | O=C(Cn1c(-c2ccccn2)nc2ccccc21)NCc1ccccc1
i | CCn1cnc2c(-c3ccccc3)cn(CC(=O)Nc3cc(OC)c(OC)c(OC)c3)c2c1=O
i | Cc1cn2c3c(=O)[nH]c(=O)n(C)c3nc2n1CCCn1ccnc1

# (list continues)
GIRK2 act | smiles
i | CCSc1nnc(NC(=O)CN2CCC(c3nnc(-c4ccco4)s3)CC2)s1
i | COc1ccc(-n2ccn3c(-c4cccc(F)c4)nnc3c2=O)cc1
i | CCCCNC(=O)c1ccc(-n2ccnc2SCC(=O)Nc2cc(OC)c(OC)c(OC)c2)cc1
i | COc1ccc(C)cc1NC(=O)CCc1csc(NC(=O)NC2CCCCC2)n1
i | CS(=O)(=O)NCCN1CCN(c2ccc(Cl)cc2)CC1
i | Cc1cc(SCC(=O)O)ncn1
i | Cc1ccc(-c2cc3c(=O)n(Cc4ccc(C)cc4C)ccn3n2)cc1
i | COc1cccc(CSc2nc(C)c(CC(=O)NC3CC3)c(=O)[nH]2)c1
i | COc1ccc(NC(=O)CSc2cc(-c3ccccn3)nc(C)n2)cc1OC
i | CC(C)S(=O)(=O)c1ccc(CC(=O)NCc2ccsc2)cc1
i | CCn1nccc1C(=O)Nc1ccc(-n2cnnn2)cc1
i | COc1ccc2c(c1)O/C(=C\c1ccc3c(c1)OCO3)C2=O
i | COc1nn(C)cc1C(=O)Nc1ccc(C(=O)NCc2ccco2)cc1
i | COc1ccc(OCCS(=O)(=O)Nc2cc(OCc3ccccc3)ncn2)cc1
i | Cc1noc(CNC(=O)COc2ccc(C(C)C)cc2)n1
i | COc1ccc([C@@]2(O)c3c(ccc(/C=C/C4(C)CCC(C)(C)CO4)c3O)NC(=O)[C@@H]2OC)cc1 (some centres undefined)
i | COc1ccc(OCC(O)Cn2c(C(F)(F)F)nc3ccccc32)cc1 (centres undefined)
i | COc1ccc(-c2csc(NC(=O)C3CCN(S(=O)(=O)c4ccc(F)cc4)CC3)n2)cc1C
i | COc1ccc(C)cc1S(=O)(=O)Nc1ccc2c(c1)CC(=O)N2
i | Cc1ccc(NC(=O)CN2CCc3[nH]c4ccccc4c(=O)c3C2)cc1Cl

# 2 entries from above, tab-delimited:
Compound	GIRK2 act
Cc1noc(CNC(=O)COc2ccc(C(C)C)cc2)n1	i
Cc1ccc(-c2cc3c(=O)n(Cc4ccc(C)cc4C)ccn3n2)cc1	i

# Next section:
GIRK2 act | smiles
i | Cc1cccc(CC(=O)Nc2cc(C3CC3)nn2-c2nc3c(c(=O)[nH]2)CCC3)c1
i | COc1cccc(CCNC(=O)CN(C)c2nc3c(C(F)(F)F)cccc3s2)c1
i | Cn1c(C(F)(F)F)nn(CCNS(C)(=O)=O)c1=O
i | Cc1ccc2c(-c3ccnc(Nc4ccccc4)n3)c(-c3ccc(F)cc3)nn2n1
i | COc1ccc(S(=O)(=O)N2CCCc3cc(NS(=O)(=O)c4cccc(Cl)c4)ccc32)cc1
i | CCOC(=O)CCC(=O)NCC1(c2ccc(F)cc2)CC1
i | CCN1C(=O)c2cccc3c(NC(=O)CCCS(=O)(=O)Cc4ccccc4)ccc1c23
i | Cc1cc(-n2cc(C(=O)N3CCC(NC(=O)c4cccs4)CC3)nn2)ccc1F
i | CN1CCN(S(=O)(=O)c2ccc(Oc3ccccc3Cl)cc2)CC1
i | COc1ccc(CC(=O)N2CCC3(CC2)NC(=O)c2cccc(Cl)c2N3)cc1
i | Cc1onc(-c2ccccc2Cl)c1C(=O)N(C(=O)N1CCCCC1)c1ccccc1
i | O=C(c1cccs1)N(Cc1ccsc1)CC(F)(F)F

# Grouped by structure, those above with a cyano group (3)
GIRK2 act | smiles
i | N#C/C(=C/Nc1ccc(C(N)=O)cc1)c1nc(-c2cc3cc(Cl)ccc3oc2=O)cs1
i | N#Cc1ccsc1NC(=O)CSc1ncn[nH]1
i | COc1ccc(-c2csc(/C(C#N)=C/Nc3ccc(OC)c(OC)c3)n2)cc1

# Screens (PubChem BioAssay)

# An excerpt; count on the stated rates, not on these rows.
